Sa ugtP lethal: kills S. aureus RN4220 lacking UgtP; growth inhibition, % (no concentration beside the values); S. aureus RN4220 ugtP deletion, OD600 growth, 16 h; some inactives read as strong as hits; 330,000 tested, 0.54% active; AID 1259309;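 active = z-score under -3 and OD600 up to 0.15 on both plates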;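 also: plate controls were untreated wells for no effect and antibiotic for full effect; wells of about 80 µL received 100 nL stock; the first replicate is given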
Bead autofluor: flagged as autofluorescent in microsphere protease counterscreen. compound autofluorescence counterscreen, microsphere flow cytometry; stronger effect = higher value. 360,000 tested, 3.1% active. fluorescence intensity (test concentration not listed);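 active = at least 3 SD above the mean of all compounds, about 16000 in these data; inconclusive = too few beads counted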;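 also: 100 nL of 1 mM stock went into each well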
Mtb hypoxia rep: reduces hypoxia-regulated biosensor signal in M. tuberculosis; M. tuberculosis hypoxia-regulated fluorescent reporter, fluorescence; fluorescence inhibition, % (test concentration not listed); 300,000 tested, 0.1% active; AID 1159583;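 active = 35 to 45% if threefold the growth effect, above 45% if 1.5-fold the growth effect; inactive = the rest, general growth blockers included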;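 also: wells of about 50 µL received 100 nL stock; 0% = vehicle wells and 100% = reference inhibitor wells; whole bacteria with a GFP reporter of the hypoxia response; strong numbers were not always called active; many hits fall short of the cut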
RN4220 kill: S. aureus RN4220 growth inhibition; 330,000 tested, 0.33% active; inhibition, % (test concentration not listed); OD600, 16 h;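 active = z-score of -3 or lower and OD600 up to 0.18 on both plates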;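 also: plate controls were untreated cells for no effect and reference antibiotic for full effect; stock transfer was 100 nL into about 80 µL; one replicate is shown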
BJeLR viability: kills HRASV12-expressing BJeLR cells; inhibition, % (concentration not given with the values); 300,000 tested, 0.17% active; BJeLR (HRASV12) viability, CellTiter-Glo ATP luminescence, 48 h; reference of the scale not given here; AID 1554;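 active = replicate mean above 50%; inconclusive = above 50% but judged a plate artefact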;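 also: 50 nL library stock added to about 25 µL; numbers are from one replicate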
PrP 5UTR inh: suppresses PrP 5' UTR mRNA reporter expression. inhibition, % (no concentration beside the values). 340,000 tested, 0.35% active. AID 488862. cell-based PrP 5' UTR mRNA reporter, plate reader;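 active = every replicate at 50% or more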;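 also: 0 = median of the neutral control wells; tested in H4 reporter cells; numbers are from one replicate; inactives centre near -14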
Mtb hypoxia rep growth: also measured in Mtb hypoxia rep; calls as there; growth inhibition, %; measured here: M. tuberculosis growth (absorbance);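 0% = vehicle and 100% = reference antibiotic; read after six days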
* hit, by the source's call; & = joins results of further samples; ! = a repeat was not active.

The first four records as a preview:
What do the screens show for `Cc1ccc(S(=O)(=O)Cc2ccc(C(=O)N3CCN(c4cc(C)ccc4C)CC3)o2)cc1`?
Sa ugtP lethal: 1; Bead autofluor: 6309; Mtb hypoxia rep: -4; RN4220 kill: 1.9; BJeLR viability: 5; PrP 5UTR inh: -13; Mtb hypoxia rep growth: 1

What do the screens show for `COC(=O)C1=C(c2ccc(Cl)c(C(F)(F)F)c2)CC2CCC1N2C(=O)N1CCOCC1` (stereo not drawn)?
Sa ugtP lethal: -5; Mtb hypoxia rep: 7; RN4220 kill: 9.5; Mtb hypoxia rep growth: 6

What do the screens show for `CCn1nnnc1SCC(=O)Nc1cc(C)on1`?
Sa ugtP lethal: 8; Bead autofluor: 3470; RN4220 kill: 3.0; BJeLR viability: -4; PrP 5UTR inh: -22

How did Cc1cc(C)n(-c2nc3ccccc3c(=O)n2OCc2ccc(Cl)cc2)n1 do in these assays?
Sa ugtP lethal: 8; Bead autofluor: 22331*; Mtb hypoxia rep: -3; RN4220 kill: -3.5; BJeLR viability: -5; PrP 5UTR inh: 1; Mtb hypoxia rep growth: 2

The list itself, repeating the preview:
What do the screens show for `Cc1ccc(S(=O)(=O)Cc2ccc(C(=O)N3CCN(c4cc(C)ccc4C)CC3)o2)cc1`?
Sa ugtP lethal: 1; Bead autofluor: 6309; Mtb hypoxia rep: -4; RN4220 kill: 1.9; BJeLR viability: 5; PrP 5UTR inh: -13; Mtb hypoxia rep growth: 1

What do the screens show for `COC(=O)C1=C(c2ccc(Cl)c(C(F)(F)F)c2)CC2CCC1N2C(=O)N1CCOCC1` (stereo not drawn)?
Sa ugtP lethal: -5; Mtb hypoxia rep: 7; RN4220 kill: 9.5; Mtb hypoxia rep growth: 6

What do the screens show for `CCn1nnnc1SCC(=O)Nc1cc(C)on1`?
Sa ugtP lethal: 8; Bead autofluor: 3470; RN4220 kill: 3.0; BJeLR viability: -4; PrP 5UTR inh: -22

How did Cc1cc(C)n(-c2nc3ccccc3c(=O)n2OCc2ccc(Cl)cc2)n1 do in these assays?
Sa ugtP lethal: 8; Bead autofluor: 22331*; Mtb hypoxia rep: -3; RN4220 kill: -3.5; BJeLR viability: -5; PrP 5UTR inh: 1; Mtb hypoxia rep growth: 2

How did CCn1ncc([C@@H]2C[C@H]3CN(Cc4ccccc4C)C(=O)[C@]34CCCN24)c1C do in these assays?
Sa ugtP lethal: -1; Bead autofluor: 3481; Mtb hypoxia rep: 6; RN4220 kill: 3.9; BJeLR viability: 6; PrP 5UTR inh: -20; Mtb hypoxia rep growth: 4

Results for CCCc1cc(=O)oc2cc(C)cc(OCC(=O)NCCCN3CCCC3=O)c12 ?
Sa ugtP lethal: 2; Bead autofluor: 5378; Mtb hypoxia rep: 8; RN4220 kill: 2.0; BJeLR viability: -2; PrP 5UTR inh: -3; Mtb hypoxia rep growth: 4

How did CCOc1ccc(NC(C(=O)Nc2cccc(C(C)=O)c2)c2ccccc2)cc1 (stereo not drawn) do in these assays?
Sa ugtP lethal: 2; Bead autofluor: 2065; Mtb hypoxia rep: -1; RN4220 kill: -0.2; BJeLR viability: -15; PrP 5UTR inh: -13; Mtb hypoxia rep growth: 7

What do the screens show for `CC1Cc2cc(S(=O)(=O)N3CCN(c4ccccc4)CC3)ccc2N1C(=O)C1CC1` (stereo not drawn)?
Sa ugtP lethal: 3; Bead autofluor: 6101; Mtb hypoxia rep: 3; RN4220 kill: 0.0; BJeLR viability: -4; PrP 5UTR inh: 2; Mtb hypoxia rep growth: 3

What do the screens show for `c1ccc(CCCc2nc(-c3ccccn3)no2)cc1`?
Sa ugtP lethal: 9; Bead autofluor: 10815; Mtb hypoxia rep: 6; RN4220 kill: 5.7; BJeLR viability: 1; PrP 5UTR inh: -63; Mtb hypoxia rep growth: -1

Results for CCc1ccc(Oc2ncnc(N)c2[N+](=O)[O-])cc1 ?
Sa ugtP lethal: 6; Bead autofluor: 4226; Mtb hypoxia rep: 2; RN4220 kill: 0.0; BJeLR viability: 2; PrP 5UTR inh: -18; Mtb hypoxia rep growth: 7

Results for Clc1ccc2c(NCc3ccccn3)ccnc2c1 ?
Sa ugtP lethal: -6; Bead autofluor: 3029; Mtb hypoxia rep: -7; RN4220 kill: 0.5; BJeLR viability: 3; PrP 5UTR inh: 4; Mtb hypoxia rep growth: -4

What do the screens show for `CC1CCCN(C(=O)CN(c2ccccc2)S(=O)(=O)c2ccc(F)cc2)C1` (stereo not drawn)?
Sa ugtP lethal: 2; Bead autofluor: 8657; Mtb hypoxia rep: 2; RN4220 kill: 3.2; PrP 5UTR inh: -64; Mtb hypoxia rep growth: -2

Results for COC(=O)N1C(=O)[C@@](c2ccccc2)(C(C)C)N1C(=O)OC ?
Sa ugtP lethal: 7; Bead autofluor: 3783; Mtb hypoxia rep: 0; RN4220 kill: 8.3; BJeLR viability: -2; PrP 5UTR inh: -20; Mtb hypoxia rep growth: -8

How did CCN1C(=O)C(=CN2CCN(c3ccccc3)CC2)SC1=S do in these assays?
Sa ugtP lethal: -6; Mtb hypoxia rep: 6; RN4220 kill: 1.9; Mtb hypoxia rep growth: 16

What do the screens show for `Cc1nnsc1C(=O)Nc1ccc(S(=O)(=O)N2CCC(C)CC2)cc1`?
Sa ugtP lethal: 9; Bead autofluor: 4308; Mtb hypoxia rep: 0; RN4220 kill: 8.4; BJeLR viability: 16; PrP 5UTR inh: 8; Mtb hypoxia rep growth: 0

Results for CC1C=C(C(=O)NC2CC2)OC(OCc2ccc(CO)cc2)C1 (stereo not drawn) ?
Sa ugtP lethal: 0&-2; Mtb hypoxia rep: 5&2; RN4220 kill: 7.9&7.2; Mtb hypoxia rep growth: 3&-4

How did O=C(CCNC(=O)c1ccco1)Nc1ccc(F)c(Cl)c1 do in these assays?
Sa ugtP lethal: 0; Bead autofluor: 2960; Mtb hypoxia rep: -11; RN4220 kill: 2.9; BJeLR viability: -1; PrP 5UTR inh: -11; Mtb hypoxia rep growth: -3

What do the screens show for `C=CCN(C(=O)c1csnn1)C(C(=O)NCc1ccc(F)cc1)c1ccc(F)cc1` (stereo not drawn)?
Sa ugtP lethal: 0; Bead autofluor: 3790; Mtb hypoxia rep: 1; RN4220 kill: 0.4; BJeLR viability: -3; PrP 5UTR inh: -14; Mtb hypoxia rep growth: 4

What do the screens show for `COc1ccc(NC(=O)COC(=O)/C=C/c2ccc(OC)c(S(=O)(=O)N3CCOCC3)c2)cc1`?
Sa ugtP lethal: 0; Bead autofluor: 10049; Mtb hypoxia rep: -6; RN4220 kill: 4.8; BJeLR viability: -15; PrP 5UTR inh: 5; Mtb hypoxia rep growth: 2

Results for Cc1ccc(S(=O)(=O)N2CCN(C(=O)COC(=O)c3ccc(C(C)(C)C)cc3)CC2)c(C)c1 ?
Bead autofluor: 4414; BJeLR viability: 8; PrP 5UTR inh: -25

What do the screens show for `Cc1cc2nc(-c3ccc[nH]c3=O)n(Cc3ccccc3F)c2cc1C`?
Sa ugtP lethal: 16; Bead autofluor: 3324; Mtb hypoxia rep: 9; RN4220 kill: -0.7; BJeLR viability: 7; PrP 5UTR inh: -16; Mtb hypoxia rep growth: 3

What do the screens show for `O=C1[C@@H]2CSCN2C(=O)CN1Cc1ccc(F)cc1`?
Sa ugtP lethal: 1; Bead autofluor: 5176; Mtb hypoxia rep: 14; RN4220 kill: 3.2; BJeLR viability: 0; PrP 5UTR inh: -7; Mtb hypoxia rep growth: 6

How did COc1ccc(NC(=O)CSc2nc3c(c(=O)n(C)c(=O)n3C)n2C)c(OC)c1 do in these assays?
Sa ugtP lethal: 5; Bead autofluor: 3451; Mtb hypoxia rep: -11; RN4220 kill: 1.1; BJeLR viability: 8; PrP 5UTR inh: 0; Mtb hypoxia rep growth: -12

Results for CN1C(=O)C2(c3ccccc31)N(C)CC(c1ccccc1)C21SC(=S)N(Cc2ccco2)C1=O (stereo not drawn) ?
Sa ugtP lethal: 5; Bead autofluor: 8447; Mtb hypoxia rep: 6; RN4220 kill: 3.1; BJeLR viability: 1; PrP 5UTR inh: -14; Mtb hypoxia rep growth: 3

What do the screens show for `COc1cc(C2C3=C(CC(c4ccco4)CC3=O)Nc3ccccc3N2C(C)=O)cc(OC)c1OC` (stereo not drawn)?
Sa ugtP lethal: 1; Bead autofluor: 3303; Mtb hypoxia rep: 5; RN4220 kill: -18; BJeLR viability: -4; PrP 5UTR inh: -17; Mtb hypoxia rep growth: 7

Results for COc1cc2nc(NC(=O)c3ccccc3)[nH]c(=O)c2cc1OC ?
Sa ugtP lethal: 0; Bead autofluor: 4386; RN4220 kill: 0.9; BJeLR viability: -7; PrP 5UTR inh: 1

Results for Cc1cccc(C(=O)NN(C)c2nc(-c3ccccc3)nnc2C(F)(F)F)c1 ?
Sa ugtP lethal: 3; Bead autofluor: 4597; Mtb hypoxia rep: 7; RN4220 kill: 1.6; BJeLR viability: 2; PrP 5UTR inh: -15; Mtb hypoxia rep growth: 5

Results for Cc1cc(C)c2c(-n3cccc3)c(C(=O)NNS(=O)(=O)c3ccc(Cl)cc3)sc2n1 ?
Sa ugtP lethal: -23; Bead autofluor: 4591; Mtb hypoxia rep: 3; RN4220 kill: 8.2; BJeLR viability: -18; PrP 5UTR inh: -12; Mtb hypoxia rep growth: 6

Results for O=C(COC(=O)c1cc(-c2cccs2)nn1-c1ccccc1)Nc1cc([N+](=O)[O-])ccc1Cl ?
Sa ugtP lethal: -5; Bead autofluor: 2121; Mtb hypoxia rep: 14; RN4220 kill: -1.4; BJeLR viability: -2; PrP 5UTR inh: -8; Mtb hypoxia rep growth: 2

How did O=C(O)c1ccc(/C=C/c2nc3ccccc3c(=O)n2-c2ccc(Br)cc2)cc1 do in these assays?
Sa ugtP lethal: 9; Bead autofluor: 3438; Mtb hypoxia rep: -1; RN4220 kill: 9.4; BJeLR viability: -4; PrP 5UTR inh: -21; Mtb hypoxia rep growth: -4

Results for CC1(C)C=Cc2c(ccc(-c3coc4cc(O)ccc4c3=O)c2O)O1 ?
Sa ugtP lethal: 2; RN4220 kill: 4.4; BJeLR viability: -15

Results for CN1CCN(c2ccc(NC(=O)CSc3nnnn3-c3ccccc3Cl)cc2)CC1 ?
Sa ugtP lethal: -2; Bead autofluor: 3899; Mtb hypoxia rep: 10; RN4220 kill: -3.2; BJeLR viability: -12; PrP 5UTR inh: -4; Mtb hypoxia rep growth: 1

Results for COc1ccc(OCCSc2nnc(C)n2-c2ccccc2)cc1 ?
Sa ugtP lethal: -9; Bead autofluor: 9312; Mtb hypoxia rep: -20; RN4220 kill: 0.2; BJeLR viability: 0; PrP 5UTR inh: -18; Mtb hypoxia rep growth: 10

Results for COc1ccccc1NC(=O)c1ccc2nc(C)sc2c1 ?
Sa ugtP lethal: -2; Bead autofluor: 4335; Mtb hypoxia rep: -2; RN4220 kill: 3.0; BJeLR viability: -5; PrP 5UTR inh: -22; Mtb hypoxia rep growth: 10

How did CSCCC(NC(=O)c1cccc(S(=O)(=O)N2CCOCC2)c1)c1nc2ccccc2[nH]1 (stereo not drawn) do in these assays?
Sa ugtP lethal: 11; Mtb hypoxia rep: 11; RN4220 kill: 6.4; PrP 5UTR inh: -21; Mtb hypoxia rep growth: 4

Results for O=c1cc(O)nc(SCc2ccccc2)n1-c1ccccc1 ?
Sa ugtP lethal: -5&-5; Bead autofluor: 24058*!; Mtb hypoxia rep: 5&7; RN4220 kill: 4.1&2.9; BJeLR viability: 1&-3; PrP 5UTR inh: -10&-15; Mtb hypoxia rep growth: 4&7

Results for CC(C)N(CCNS(=O)(=O)c1ccc(Cl)cc1)C(C)C ?
Sa ugtP lethal: 1; Bead autofluor: 9328; Mtb hypoxia rep: -19; RN4220 kill: 0.9; BJeLR viability: 4; PrP 5UTR inh: 4; Mtb hypoxia rep growth: 4

Results for CCOc1ccc(CCNC(=O)COC(=O)CCc2cc(OC)c(OC)c(OC)c2)cc1OCC ?
Sa ugtP lethal: 10; Bead autofluor: inconclusive; Mtb hypoxia rep: 5; RN4220 kill: 2.7; BJeLR viability: 4; PrP 5UTR inh: -6; Mtb hypoxia rep growth: 9

What do the screens show for `CCN(CC(=O)NCc1cccs1)C(=O)c1cccc(S(=O)(=O)Nc2ccc(OC)cc2)c1`?
Sa ugtP lethal: 3; Bead autofluor: inconclusive; Mtb hypoxia rep: -3; RN4220 kill: 1.3; BJeLR viability: -1; PrP 5UTR inh: -3; Mtb hypoxia rep growth: 9
